Rango dissoc inh: inhibitors of RanGTP-induced Rango-importin beta complex dissociation; AID 540253; actives 0.071% (n = 340,000); Biochemical FRET Rango-importin beta, RanGTP-induced dissociation; Potency, µM (doses to about 46.1 µM), for inactives: at the top dose activity change, negative = inhibition; active means falling FRET ratio curve, often poorly fitted, with flat reads before Ran was added; inconclusive means other falling curves, or compound fluorescence or quenching; inactive means flat or rising ratio curve;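 also: potency is read from the fitted curve at half-maximal effect; % of control where 0% means no effect; nearly all actives have a fitted effect of over 45% in size; -100% = wells without RanGTP and RCC1; the record marks most hits as doubtful in a second field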
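Rango FRET biosensor (snurportin-1 IBB flanked by N-terminal EYFP and C-terminal CFP10) at 0.1 uM, with 0.25 uM importin beta in PBS, 1mM DTT, 0.02% Tween-20, 0.1% BSA. 0.6 uM Ran, 2mM GTP and 0.2 uM RCC1 were then added for 45 min at room temperature. Inhibition read as loss of FRET rise.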
Rango complex inh: inhibitors of Rango-importin beta complex formation | Rango CFP/YFP FRET sensor + importin beta, 45 min | Potency, µM (series often up to 92.2 µM), for inactives: top-dose inhibition of complex formation | actives 0.031% (n = 340,000); active = rising FRET ratio curve, often small or poorly fitted; inconclusive = mostly compound fluorescence or quenching in the first reads; inactive = flat curves in all reads;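 also: potency is read from the fitted curve at half-maximal effect; 0% = DMSO wells and 100% = buffer wells lacking importin beta; nearly all actives have a fitted effect of over 15% in size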
Target sequence (Q14974 whole entry, looked up): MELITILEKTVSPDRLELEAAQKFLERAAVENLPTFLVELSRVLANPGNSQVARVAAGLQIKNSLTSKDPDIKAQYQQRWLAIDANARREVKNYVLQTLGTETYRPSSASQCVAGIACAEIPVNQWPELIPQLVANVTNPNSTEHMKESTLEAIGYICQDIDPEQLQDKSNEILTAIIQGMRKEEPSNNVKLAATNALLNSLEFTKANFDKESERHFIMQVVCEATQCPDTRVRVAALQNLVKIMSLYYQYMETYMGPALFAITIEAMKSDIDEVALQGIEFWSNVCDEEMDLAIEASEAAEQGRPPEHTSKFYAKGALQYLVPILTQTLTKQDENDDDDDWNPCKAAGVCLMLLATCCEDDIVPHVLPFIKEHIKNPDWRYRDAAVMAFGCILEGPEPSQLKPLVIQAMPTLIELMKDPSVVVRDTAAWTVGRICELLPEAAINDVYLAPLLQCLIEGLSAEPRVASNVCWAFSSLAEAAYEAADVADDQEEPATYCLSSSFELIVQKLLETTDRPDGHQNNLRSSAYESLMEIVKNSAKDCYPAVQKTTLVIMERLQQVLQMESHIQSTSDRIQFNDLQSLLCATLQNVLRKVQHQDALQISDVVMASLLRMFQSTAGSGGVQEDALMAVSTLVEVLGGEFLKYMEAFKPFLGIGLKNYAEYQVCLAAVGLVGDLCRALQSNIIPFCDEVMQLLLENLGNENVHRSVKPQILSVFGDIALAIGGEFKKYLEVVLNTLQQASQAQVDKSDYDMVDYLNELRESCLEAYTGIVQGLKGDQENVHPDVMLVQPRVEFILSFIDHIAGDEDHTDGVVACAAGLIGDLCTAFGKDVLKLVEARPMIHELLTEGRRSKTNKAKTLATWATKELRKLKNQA
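FRET biosensor Rango (snurportin 1 IBB between N-terminal EYFP and C-terminal Cerulean), 50 nM in PBS/1 mM DTT/0.02% Tween-20/0.1% BSA, preincubated 5 min RT with compound; 0.125 microM importin beta added, 45 min RT, CFP/YFP FRET ratio read.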
miR-21 FLuc: raises the signal of a miR-21 reporter; HeLa miR-21 FLuc reporter, luciferase, 48 h; Potency, µM (doses to about 38.3 µM), without a hit: at the top dose reporter change, positive = more light; 340,000 tested, under 10 active; AID 2288; active = well fitted rising curve with a large enough effect; inconclusive = small, poorly fitted or top-dose-only effect; inactive = no such curve, though single readings can be large or run the other way;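 also: % of control where 0% means no effect; miR-21 action dims this reporter so a rising signal means less miR-21 action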
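Luminescence from a firefly luciferase reporter carrying a miR-21 binding site downstream, stably expressed under a CMV promoter in HeLa cells that make miR-21 endogenously, reports miRNA modulation after 48 h compound exposure up to approximately 40uM final.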
GLA inh pH 4.5: alpha-galactosidase A (human) inhibition, pH 4.5; P06280; purified enzyme, 4-MU-alpha-Gal fluorescence, pH 4.5; activity change, negative = inhibition, % at 105 µM; 230,000 tested, under 10 active; AID 1467; inconclusive = small, poorly fitted or top-dose-only inhibition, or a rising curve; inactive = flat fitted curve, though single readings scatter; no compound was filed as active;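 also: 0% = full activity with enzyme and -100% = basal without enzyme; dose as in the result columns while the protocol names 77 µM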
The depositor's hits bear a star; ? = inconclusive; / = no result given.

SMILES	Rango dissoc inh	Rango complex inh	miR-21 FLuc	GLA inh pH 4.5
C=COCCn1c(=N)n(CCC)c2ccccc21	-13%	1.7%	-2%	4
CCOc1cc(CNc2ccc3[nH]c(=O)[nH]c3c2)ccc1OCC(=O)NC(C)(C)C	-9%	2.1%	1%	-5
O=C(N/C=C/c1ccco1)OCc1ccccc1	-3%	?	-9%	-13
CCCc1[nH]nc2c1C(c1ccc(OC(=O)N3CCOCC3)cc1)C(C#N)=C(N)O2 (configuration not stated)	8%	-2.6%	-1%	-7
CC(C)(CNS(=O)(=O)c1ccc(Br)s1)N1CCOCC1	1%	-3.0%	/	/
Cc1c(O)nc2ccccn2c1=O	0%	0.2%	6%	5
COC(=O)[C@H](Cc1ccccc1)NC(=O)Nc1ccc(C)cc1	-6%	0.7%	-7%	-3
CCCCC(=O)N(Cc1ccc2c(c1)OCO2)Cc1nc2ccccc2c(=O)[nH]1	6%	1.5%	-5%	-2
Cc1ccc(S(=O)(=O)N2CCCC2C(=O)OCc2ccco2)cc1 (configuration not stated)	3%	1.5%	-2%	-14
COc1ccc(N2CC(C(=O)Nc3nc4ccc(OC)cc4s3)CC2=O)cc1 (configuration not stated)	11%	-3.8%	12%	/
OCc1c[nH]c2ccccc12	-9%	?	/	0
COCCCNC(=S)N1CCN(c2ccc([N+](=O)[O-])cc2)CC1	0%	-1.1%	9%	-8
COc1ccc(Cl)cc1NC(=O)c1cc(S(=O)(=O)N2CCCC2)cn1C	13%	-1.4%	0%	/
CCNC(=S)NNC(=O)Cc1ccccc1	1%	-0.2%	-2%	7
COCC(C)NC(=O)c1cccc(Cl)c1 (configuration not stated)	-19%	-0.4%	-3%	10
COc1ccc(Cl)cc1NC(=S)NNC(=O)CC(C)C	17%	0.3%	-3%	6
Cc1cccc(C)c1NC(=O)CN(C)C(=O)C1CCCCC1	-11%	-3.5%	/	/
CN(C)c1cccc(NC(=O)NC2(C)CCS(=O)(=O)C2)c1 (configuration not stated)	-1%	0.1%	-1%	/
COc1cc(S(=O)(=O)Nc2ccccc2)ccc1N=Cc1c(C)[nH]n(-c2ccc(C)cc2)c1=O	/	/	-9%	-2
CCOC(=O)C1=C(c2ccccc2)OC(N)=C(C#N)C1c1cccs1 (configuration not stated)	1%	-0.2%	-6%	-14
O=C(O)c1cc(Nc2nc(N3CCOCC3)nc(N3CCOCC3)n2)ccc1Cl	1%	-0.5%	1%	0
CNC(=S)N/N=C/c1c(C)c(C(=O)c2ccc(F)cc2)n2ccccc12	?	13%	4%	/
CC1=C(C(=O)OC(C)C)C(c2cccs2)NC(=S)N1 (configuration not stated)	10%	2.9%	0%	-5
CSc1nsc(/C=C/Nc2ccc(C)cc2)c1C#N	?	?	0%	5
O=c1ccc2cc(O)c(O)cc2o1	?	?	-21%	?
The listing continues.
SMILES	Rango dissoc inh	Rango complex inh	miR-21 FLuc	GLA inh pH 4.5
Cc1ccc(NC(=O)CN(C)C(=O)c2ccc(Cl)nc2)cc1	0%	2.0%	-3%	/
COCCCNc1nc2c(-c3ccc(C)cc3)nnn2c2ccccc12	4%	-0.9%	-52%	/
O=C(O)c1ccccc1/C=N/NC(=O)C1CCCC1	-11%	0.1%	-14%	/
COc1ccc2nc(NC(=O)CSCc3c(C)noc3C)sc2c1	4%	-4.6%	/	/
COc1ccc(Cn2c(=S)[nH]c3cc(C(=O)NCc4cccnc4)ccc3c2=O)cc1	-2%	0.7%	-6%	0
O=C1CC(=O)Nc2cc(S(=O)(=O)Nc3cccc(C(F)(F)F)c3)ccc2N1	-2%	3.5%	0%	/
Cc1cccc(NC(=S)N2CCC(C(N)=O)(N3CCCCC3)CC2)c1C	0%	0.7%	-3%	3
Cc1ccc(F)cc1NC(=O)/C=C/c1ccc(S(=O)(=O)N2CCOCC2)cc1	11%	-0.3%	/	/
Cc1ccc(N(C)S(=O)(=O)c2cccc(C(=O)NCC(c3ccco3)N3CCCC3)c2)cc1 (configuration not stated)	0%	2.3%	/	/
O=C(C1=NN(c2ccccc2)C2C(=O)N(c3ccc(Cl)cc3)C(=O)C12)c1ccccc1 (configuration not stated)	?	?	-2%	-9
COc1cc(C(N)=O)cc(Cl)c1OCc1ccccc1	-6%	1.4%	-30%	-3
COC(C[C@H]1O[C@H]1[C@H](O)[C@@H](C)OCc1ccccc1)OC	2%	-0.7%	-1%	3
O=C(Nc1ccccc1-c1ccccc1)NC1CCN(C(=O)N2CCOCC2)CC1	0%	2.1%	-1%	1
Cc1ccc(C(C(=O)NC2CCCCC2)N(CC2CCCO2)C(=O)CCCC(=O)Nc2ccccn2)cc1 (configuration not stated)	0%	-1.6%	-2%	/
COC(=O)c1scc(S(=O)(=O)C(C)(C)C)c1N	-8%	0.0%	-8%	-1
CNc1nc(-c2c(C)n(C)c3ccc(OC)cc23)cs1	-8%	2.4%	-3%	/
Oc1ccc(-c2[nH]ncc2-c2nc3ccccc3s2)c(O)c1	4%	-0.9%	-12%	2
Cc1ccc(NC(=O)C2c3ccccc3Oc3ccccc32)nc1	1%	2.4%	1%	-2
CC(C)Cn1c(SC(C)C(=O)NCC2CCCO2)nc2ccc(Cl)cc2c1=O (configuration not stated)	0%	0.1%	/	/
Cc1sc2ncnc(NCc3ccccc3)c2c1C	-17%	-1.9%	-6%	3
CCOC(=O)c1ccccc1NS(=O)(=O)c1ccc(C)cc1	-8%	-0.3%	21%	-5
Cc1cc(N(CC(=O)O)S(C)(=O)=O)ccc1Br	18%	1.4%	-5%	-4
COc1ccccc1N1C(=O)c2ccc(C(=O)Nc3ccc(F)cc3)cc2C1=O	?	2.2%	-3%	/
C/C(CC(=O)Nc1ccccn1)=N\NC(=O)c1cccc(C)c1	9%	8.5%	-21%	4
CC1=NN(C(=O)COc2ccc(C)c(C)c2)C(O)(c2ccccc2)C1 (configuration not stated)	1%	-4.8%	-9%	0
(more compounds)
SMILES	Rango dissoc inh	Rango complex inh	miR-21 FLuc	GLA inh pH 4.5
CC(=O)N1CCN(S(=O)(=O)c2cccc(C(=O)NCCc3ccc(Cl)cc3)c2)CC1	4%	-3.1%	/	/
CCCCn1c(SCC(=O)Nc2cc(C)on2)nnc1-c1ccco1	1%	-9.8%	-2%	5
CC(C)(C)c1ccc(/C=N/NC(=S)NCc2ccccc2)cc1	-3%	3.9%	-6%	1
O=C(c1cccc(F)c1)N1CCN=C1SCc1cccnc1	-16%	-3.6%	-10%	-2
CC(C)NC(=O)c1ccc2c3n(nc2c1)-c1ccccc1CO3	14%	9.8%	22%	9
CN1/C(=C\C(=O)COC(=O)c2nccnc2N)C(C)(C)c2ccccc21	-14%	?	/	/
CN(Cc1nccs1)C(=O)CC1C(=O)NCCN1Cc1ccc(-c2ccccc2)cc1 (configuration not stated)	-2%	0.1%	1%	-9
O=C(CSc1ccc(C(F)(F)F)cc1[N+](=O)[O-])N1CCOCC1	5%	1.9%	-6%	/
COc1ccc(NC(=O)C(=O)NCCN2CCN(C(=O)c3ccco3)CC2)cc1	0%	0.4%	0%	-24
C=CCNC(=O)NC(=O)COC(=O)c1nc2nccc(C)n2n1	0%	0.5%	-3%	3
Cc1nnc2ccc(-c3ccc(NS(=O)(=O)c4ccc(F)cc4F)cc3)nn12	-8%	3.1%	/	/
CCCCc1ccc(NS(=O)(=O)c2cccs2)cc1	-2%	-6.4%	-14%	0
O=C(Nc1ccc2c3c(cccc13)CC2)c1cccc([N+](=O)[O-])c1	-4%	-0.1%	-9%	-9
CCCn1cc(CN2CCC(C(=O)Nc3cccc(-c4cscn4)c3)CC2)c(C)n1	9%	0.0%	10%	/
COc1ccc(C(C)=O)c2c(O)cccc12	6%	0.2%	-14%	-1
Cn1c(SCC(=O)N/N=C/c2ccc([N+](=O)[O-])s2)nnc1-c1ccc(Cl)cc1	-9%	-0.6%	?	-1
COc1ccc(CNC(=O)C/C(C)=N/NC(=O)C(c2ccccc2)c2ccccc2)cc1	3%	0.2%	-4%	2
CCN1C(=O)c2cccc3c(S(=O)(=O)NC(Cc4ccccc4)C(=O)O)ccc1c23 (configuration not stated)	?	?	2%	/
Cc1nc(C(C)NC(=O)c2cc(COc3ccc(C)c(C)c3)on2)c(C)s1 (configuration not stated)	8%	5.9%	-39%	/
CCC(C)(c1ccc(C=O)s1)c1ccc(C=O)s1	-14%	-6.4%	0%	8
Cc1cccc(C(=O)NCC(c2ccco2)N2CCc3ccccc32)c1 (configuration not stated)	-6%	-2.9%	/	/
CCC(C(=O)NCc1ccco1)N(C(=O)CNS(=O)(=O)c1ccc(F)cc1)c1ccccc1F (configuration not stated)	9%	-0.4%	-3%	/
O=C(OCC(=O)N1CCCC1=O)c1ccc(Cl)cc1[N+](=O)[O-]	-18%	2.3%	/	/
COc1ccc(C(=O)CSc2nnc(CN3CCCC3)n2-c2ccc(F)cc2)c(OC)c1	20%	-1.0%	-11%	-6
Cc1ccc(OCc2cc(C(=O)N3CCN(C)C[C@@H]3c3ccccc3)no2)cc1C	-1%	1.2%	-49%	/
Next part.
SMILES	Rango dissoc inh	Rango complex inh	miR-21 FLuc	GLA inh pH 4.5
O=C1Nc2ccccc2C1=NN1CCCCCC1	4%	-1.8%	/	/
CN(C)S(=O)(=O)c1cc(NC(=O)[C@H](Cc2ccccc2)N2C(=O)c3ccccc3C2=O)ccc1Cl	-5%	-0.2%	-5%	-5
CCn1cc(C(=O)OC)c(=O)c2cc(S(=O)(=O)N(C)C3CCCCC3)ccc21	1%	0.6%	2%	17
CCOC(=O)c1cnc(SC)nc1Oc1cccc(NC(=O)c2cccc(Cl)c2Cl)c1	10%	-3.8%	?	-5
Cc1ccc2nc(SC(C)C(=O)Nc3cccc([N+](=O)[O-])c3)[nH]c2c1 (configuration not stated)	18%	2.6%	19%	11
CCCCc1ccc(S(=O)(=O)Nc2ccc(C)c(NS(C)(=O)=O)c2)cc1	-17%	-3.1%	-5%	1
O=C(Cc1ccc(S(=O)(=O)N2CCCC2)s1)N1CCOCC1	11%	-1.3%	-17%	3
Cn1c(SCC(=O)N2CCOCC2)nnc1-c1ccccc1	-2%	?	-9%	8
Cn1c(=O)c2c(nc3sccn32)n(C)c1=O	-9%	0.7%	0%	17
S=c1[nH]nc(Cc2ccccc2)n1Cc1ccco1	1%	7.2%	-6%	4
COc1cc(SC)ccc1C(=O)N1CCN(c2ccccc2F)CC1	1%	0.9%	1%	7
O=C(NCc1ccccn1)NC12CC3CC(CC(C3)C1)C2	8%	1.7%	-16%	4
CCOc1ccc(NC(=O)COC(=O)CCCc2c[nH]c3ccccc23)cc1	-10%	-0.4%	2%	-6
COC(=O)NC(=S)N1CCOCC1	-6%	0.5%	-2%	7
COc1ccc(NC(=O)c2sccc2SCc2cccc(C(F)(F)F)c2)cc1	?	-2.0%	-13%	-6
CC(C)N(CC(N)=O)C(=O)c1sc2cc(F)ccc2c1Cl	0%	-0.2%	0%	4
Cc1[nH]n(-c2ccc(Cl)cc2)c(=O)c1/C=N/c1nnc(-c2ccccc2)s1	23%	-3.9%	-19%	-5
O=C(CCc1ccccc1)Nc1ccccc1OC(=O)c1ccccc1	-1%	0.1%	/	/
Cc1ccc(S(=O)(=O)C2(C(=O)Nc3ccc(Br)cc3)CC2)cc1	-19%	1.0%	-2%	-11
O=C(Nc1ccccc1F)C1CCCN1S(=O)(=O)c1ccc(Cl)cc1 (configuration not stated)	?	2.1%	/	/
COC(=O)c1ccc(NC(=O)CSc2nccn2CCc2ccccc2)cc1	-1%	0.0%	-29%	1
COc1cccc(Nc2nnc(SCn3nnc4ccccc4c3=O)s2)c1	1%	-2.2%	-27%	7

Whole records, quoted from the list. Screens in order: Rango dissoc inh, Rango complex inh, miR-21 FLuc, GLA inh pH 4.5
`CCn1cc(C(=O)OC)c(=O)c2cc(S(=O)(=O)N(C)C3CCCCC3)ccc21` across the screens: 1%, 0.6%, 2%, 17
`Cc1[nH]n(-c2ccc(Cl)cc2)c(=O)c1/C=N/c1nnc(-c2ccccc2)s1` across the screens: 23%, -3.9%, -19%, -5
`Cn1c(=O)c2c(nc3sccn32)n(C)c1=O` across the screens: -9%, 0.7%, 0%, 17
`COC(=O)c1ccc(NC(=O)CSc2nccn2CCc2ccccc2)cc1` across the screens: -1%, 0.0%, -29%, 1
`S=c1[nH]nc(Cc2ccccc2)n1Cc1ccco1` across the screens: 1%, 7.2%, -6%, 4

Bioassay records as filed in PubChem BioAssay.

Some of the compounds tested; rates above refer to the full screens.
